CtBP-E1A blk: qHTS Assay for Inhibitors of the CtBP/E1A Interaction | 0.49% of 340,000 active | CtBP / adenovirus E1A interaction (AlphaScreen) | AlphaScreen GST-E1A/His-CtBP binding, 1536-well; stronger effect = lower value; control for the full effect not named in the record | activity change, % (concentration not given with the values); in the data active means activity change below about -65%; inconclusive means about -30% to -65%; inactive means above about -30%; further: on the % scale 0 is the no-effect control and ±100 the full control effect
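AlphaScreen with 125 nM GST-E1A and 125 nM His-CtBP (5X stocks) in Tris pH 8.0, 300 mM NaCl, BSA, Tween 20, TCEP. Compounds preincubated 2 h at 37 deg C, then glutathione donor/nickel acceptor beads added for 1 h at 37 deg C in dark.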
gsp antag: qHTS for Antagonists of gsp, the Etiologic Mutation Responsible for Fibrous Dysplasia/McCune-Albright Syndrome: qHTS; gsp-mutant cells, cAMP HTRF, 30 min; control for the full effect not named in the record; Potency, µM (titrated, usually from 76.9 µM), for inactives: at the highest dose activity change, negative = inhibition, actives largely listed as inhibitors; 0.4% of 340,000 active; AID 624288, 2012; active = falling curve of any shape with a large fitted effect; inconclusive = falling curve, mostly with a smaller effect; inactive = flat or rising curve; cell line not stated here;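 further: intracellular cAMP measured with PDE inhibitor Ro 20-1724 present during compound exposure; potency means the concentration at half of the fitted maximal effect; on the % scale 0 is the no-effect control and ±100 the full control effect; nearly all actives have a fitted effect of over 65% in size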
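HTRF cAMP read-out (cAMP-d2 plus anti-cAMP antibody-K in lysis buffer, 30 min RT). Before lysis, cells are exposed to compounds with […] for 30 min at 37C in DPBS containing Ca/Mg, BSA and Tween 20.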
D2 potentiator: Beta-Arrestin HTS for Positive Allosteric Modulators of the Human D2 Dopamine Receptor: Potentiators; 0.23% of 360,000 active; DiscoveRx D2 beta-arrestin cells, luminescence, 90 min; 100% = 57 uM dopamine signal; D(2) dopamine receptor (Homo sapiens), P14416; potentiation, % (test concentration not listed); active = potentiation of 50% or more; inconclusive = 30% to 50%; inactive = 30% or less;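 further: compound concentration not given in the record; tested on top of an EC20 dose of dopamine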
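D2 cells co-treated with compound plus 50 nM dopamine (EC20) for 90 min at 37 deg C to detect potentiation. Beta-arrestin recruitment was read as enzyme-fragment luminescence after 1 h at ambient temperature. Full response was set by 57 uM dopamine.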
D2 ag: Beta-Arrestin HTS for Positive Allosteric Modulators of the Human D2 Dopamine Receptor: Agonists; activation, % (concentration not given with the values); 0.084% of 360,000 active; DiscoveRx PathHunter D2 beta-arrestin, luminescence, 90 min; 100% = 57 uM dopamine signal; AID 624465, 2012; D(2) dopamine receptor (Homo sapiens), P14416; in the data active = activation above about 40%; inconclusive = about 15% to 40%; inactive = below about 15%; further: compound concentration not given in the record; the text of the record calls up to 30% inactive
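DiscoveRx PathHunter D2 beta-arrestin cells (2,100/well) attached overnight, then compound-stimulated 90 min at 37 C in HBSS/10 mM HEPES/0.1% Tween-20 buffer; beta-galactosidase complementation read by luminescence after 1 h at ambient temperature. Dopamine 57 uM final (EC100) as control.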
gsp agonist: qHTS for Agonist of gsp, the Etiologic Mutation Responsible for Fibrous Dysplasia/McCune-Albright Syndrome: qHTS; gsp mutant cells, cAMP HTRF, 30 min; control for the full effect not named in the record; Potency, µM (titrated, usually from 76.9 µM), for inactives: top-dose activation (cAMP increase), usual class: activators; 0.13% of 340,000 active; active = well fitted activation curve with a large enough effect; inconclusive = small, poorly fitted or top-dose-only effect, or another doubt; inactive = no such curve, though single readings can be large or run the other way; cell line not stated here;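 further: phosphodiesterase inhibitor Ro 20-1724 added with compounds to block cAMP breakdown; potency means the concentration at half of the fitted maximal effect; nearly all actives have a fitted effect of over 60% in size; about a fifth of the inactives were tested at one dose only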
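Cells in DMEM/10% FBS with G418 were pretreated with compounds in DMSO plus […] (300 uM stock) for 30 min at 37C. cAMP was measured by HTRF (cAMP-d2 plus anti-cAMP antibody-K) after 30 min at room temperature.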
Six1-Eya2 inh: qHTS Assay for Inhibitors of the Six1/Eya2 Interaction. Homeobox protein SIX1 (Homo sapiens) + Protein phosphatase EYA2 (Homo sapiens), …. AlphaScreen GST-Six1/His-Eya2 binding, biochemical; stronger effect = lower value; control for the full effect not named in the record. activity change, % (no concentration beside the values). 0.56% of 360,000 active. AID 651725, 2012; in the data active = activity change below about -65%; inconclusive = about -30% to -65%; inactive = above about -30%; further: on the % scale 0 is the no-effect control and ±100 the full control effect; compound concentration not given in the record
Target sequence (O00167 whole entry, looked up): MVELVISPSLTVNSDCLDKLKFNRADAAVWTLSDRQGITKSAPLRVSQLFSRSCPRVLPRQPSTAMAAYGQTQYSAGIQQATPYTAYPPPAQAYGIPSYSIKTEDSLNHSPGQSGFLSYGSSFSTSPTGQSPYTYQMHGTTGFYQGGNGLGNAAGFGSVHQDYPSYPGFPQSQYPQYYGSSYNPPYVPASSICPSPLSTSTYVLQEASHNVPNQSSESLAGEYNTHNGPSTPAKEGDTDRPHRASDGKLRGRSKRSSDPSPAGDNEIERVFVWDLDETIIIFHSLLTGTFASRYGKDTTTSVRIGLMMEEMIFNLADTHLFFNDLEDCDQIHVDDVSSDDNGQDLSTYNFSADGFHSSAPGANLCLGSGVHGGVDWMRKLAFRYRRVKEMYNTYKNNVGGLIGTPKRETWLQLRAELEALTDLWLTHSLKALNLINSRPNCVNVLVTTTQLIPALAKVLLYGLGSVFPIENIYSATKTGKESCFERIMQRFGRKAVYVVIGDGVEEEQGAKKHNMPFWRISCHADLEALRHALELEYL
Target sequence (Q15475 whole entry, looked up): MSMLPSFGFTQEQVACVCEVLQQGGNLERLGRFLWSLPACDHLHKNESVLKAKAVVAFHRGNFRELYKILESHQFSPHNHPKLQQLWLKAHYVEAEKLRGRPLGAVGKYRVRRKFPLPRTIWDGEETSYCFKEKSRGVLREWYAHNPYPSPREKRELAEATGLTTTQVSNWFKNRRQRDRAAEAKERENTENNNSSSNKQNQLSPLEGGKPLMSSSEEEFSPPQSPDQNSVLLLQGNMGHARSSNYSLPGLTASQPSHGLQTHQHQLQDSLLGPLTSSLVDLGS
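GST-Six1 + His-Eya2 (5X stock: 250/500 nM); Tris pH 8.0, 300 mM NaCl, 0.05% BSA, 0.02% Tween 20; GSH donor/Ni acceptor beads; 1 h 37 °C dark; AlphaScreen readout.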
* = called active by the depositor; u = inconclusive; x = not tested or not shown; [ ] = dose if it differs, or a comment.

SMILES | CtBP-E1A blk | gsp antag | D2 potentiator | D2 ag | gsp agonist | Six1-Eya2 inh
CC(=O)C1=C(O)C(=O)N(c2ccc(C)cc2)C1c1ccccn1 (stereo not drawn) | -1 | 15% | -12 | -4.0 | 6% | 0
COCCNC(=O)C1CCCN(c2ncccn2)C1 (stereo not drawn) | 5 | 12% | -6 | -3.5 | u | 1
CCCCCCN1CC(C(=O)OCC)C(=O)C1=O (stereo not drawn) | 4 | 7% | -8 | -0.4 | u | 6
COC(=O)C(C)Sc1ccc2nnc(-c3ccccc3)n2n1 (stereo not drawn) | x | 1% | -5 | -2.7 | 10µM* | 9
Cn1cnc(S(=O)(=O)N2CCCCC2c2cc(C(=O)NCc3ccc(F)cc3)no2)c1 (stereo not drawn) | -3 | x | -8 | -5.8 | x | -10
Cc1ccc(NC(=O)Nc2ccc([N+](=O)[O-])cc2)nc1 | x | 3% | -5 | 2.7 | 3%[15.4 µM] | 0
CCC1CN(C(=O)N2CCC(C(=O)NCc3ccccc3C)CC2)c2ccccc2O1 (stereo not drawn) | 3 | -23% | -4 | -0.7 | u | 0
CCn1c(SCc2ccc(C(=O)OC)o2)nc2sc3c(c2c1=O)CCCC3 | -6 | -24% | 6 | 0.7 | -8% | -5
CCN1/C(=C/c2cccc[n+]2C)Sc2ccc(OC)cc21 | x | -25% | -38 | -5.5 | u | -18
Cc1ccccc1-c1nn(-c2ccccc2)cc1C(=O)NCC(c1ccco1)N1CCCC1 (stereo not drawn) | -6 | -2% | -6 | 1.6 | -29% | -4
Cc1nc2ccc(NS(=O)(=O)c3cccc([N+](=O)[O-])c3)cc2s1 | -3 | -22% | -1 | 9.3 | 5% | -2
COc1cccc(C2c3c(-c4cc(Cl)c(C)cc4O)n[nH]c3C(=O)N2Cc2cccnc2)c1 (stereo not drawn) | 10 | 6% | 22 | 0.3 | 6% | 1
CC(C)C[C@H](NC(=O)c1nc[nH]c1C(=O)N[C@@H](CC(C)C)C(=O)OC(C)(C)C)C(=O)OC(C)(C)C | 2 | 3% | -10 | -13 | 11% | 1
Fc1cccc(CSc2nc3ncccc3[nH]2)c1 | -2 | -2% | -5 | -1.5 | 22% | 4
O=C(Nc1nccs1)C(c1ccccc1)N1CCCCC1 (stereo not drawn) | 2 | 4% | 1 | -1.4 | -17%[15.4 µM] | 1
O=C(/C=C/Nc1ccc(Br)cn1)c1cccc(OC(F)F)c1 | x | 3% | -12 | -3.3 | 13% | -1
C=CCSC(=S)Nc1c(C)n(C)n(-c2ccccc2)c1=O | 8 | 11% | -10 | -5.5 | -1%[15.4 µM] | 9
COc1ccc(C(=O)/C=C2\C(=O)Nc3ccc(Br)cc32)cc1 | 5 | 7% | -16 | 1.8 | 0% | -2
O=C(Cn1cnc([N+](=O)[O-])c1)c1ccc(Cl)cc1 | 1 | 3% | -11 | -2.1 | x | 7
CCC(=O)NC(=S)Nc1ccc(NC(=O)c2ccc(OC)cc2)cc1 | 1 | 18% | -11 | -1.8 | u | 4
CCCCN1CCCCC1(C)C(=O)NCc1cccc(OC)c1 (stereo not drawn) | 4 | x | -3 | -3.8 | x | 5
O=C(O)CCc1nc2cc(C(F)(F)F)ccc2n(Cc2ccccc2)c1=O | 0 | -26% | -12 | -5.5 | -3%[15.4 µM] | -1
CCN(CC)C(=O)CN1C(=O)COCC1=O | 13 | 2% | -6 | -1.5 | -53%[inhibitor] | 7
O=C(NCC(O)c1ccc([N+](=O)[O-])cc1)c1cccc(S(=O)(=O)N2CCCC2)c1 (stereo not drawn) | 2 | -11% | -9 | -6.0 | 2%[15.4 µM] | 10
O=C(CSCc1ccccc1Br)N/N=C/c1ccccc1C(=O)O | x | 7% | -4 | 13 | -2%[15.4 µM] | 0
Cc1cc(C)c(S(=O)(=O)N2CCN(c3ccc([N+](=O)[O-])c(NCC4CCCO4)c3)CC2)c(C)c1 (stereo not drawn) | 4 | -5% | -6 | -3.0 | -1% | -2
S=C(Nc1cccnc1)Nc1ccccn1 | x | 5% | -2 | -4.3 | 3% | 7
Cc1ccc(NC(=O)c2ccc(=O)[nH]c2)cc1S(=O)(=O)N1CCCCCC1 | 0 | 3% | -5 | -1.9 | 0%[15.4 µM] | u
CCOc1ccc(-c2cnc(SCC(N)=O)nc2N)cc1 | -1 | 1% | 2 | -0.5 | u | 10
CC(C)NC(=O)COc1ccc(OCc2ccccc2)cc1 | x | -4% | 7 | 0.8 | 8% | 0
CCOC(=O)c1cc(-c2ccccc2)n(CCC(=O)O)c1C | 10 | -24% | 6 | 2.0 | -3% | -2
CC(C)n1c(=S)[nH]c2ccccc21 | 2 | 12% | -17 | -1.1 | -4% | 1
CNc1[nH]c(=O)[nH]c(=O)c1N=Nc1cc(Cl)ccc1Cl | x | 0% | -17 | -3.5 | u | -17
COCC(=O)NCc1ccc2c(c1)OCO2 | 6 | 17% | -7 | -2.0 | 17% | 5
COC(=O)c1[nH]c2cccc(OC)c2c1NC(=O)CCN1CCSCC1 | u | -5% | -15 | -4.6 | 15%[15.4 µM] | -1
COc1cccc(OC)c1NC(=O)Cc1nn(C)c(=O)c2ccccc12 | -3 | 4% | 7 | 1.3 | 11% | 4
CCCCNC(=O)C(C)N(CCN(C)C)C(=O)CCCN1C(=O)NC(c2ccc([N+](=O)[O-])cc2)C(C(=O)OCc2ccccc2)=C1C (stereo not drawn) | -13 | 11% | x | -1.2 | x | u
CC(CC(F)(F)F)N1CCC(n2nccc2NC(=O)CCOc2ccccc2)CC1 (stereo not drawn) | 3 | 0% | -1 | -1.6 | 0% | 1
COc1ccc(CCN2CC(C(=O)N3CCSCC3)CCC2=O)cc1 (stereo not drawn) | -6 | 10% | 10 | -1.5 | -23% | 17
CC1CCCCN1C(=O)c1ccc(COc2ccc([N+](=O)[O-])cc2)o1 (stereo not drawn) | 12 | 1% | 4 | 0.3 | -2% | 3

Filtered by structure: the compounds so far containing fluorine (5)
SMILES | CtBP-E1A blk | gsp antag | D2 potentiator | D2 ag | gsp agonist | Six1-Eya2 inh
Cn1cnc(S(=O)(=O)N2CCCCC2c2cc(C(=O)NCc3ccc(F)cc3)no2)c1 (stereo not drawn) | -3 | x | -8 | -5.8 | x | -10
Fc1cccc(CSc2nc3ncccc3[nH]2)c1 | -2 | -2% | -5 | -1.5 | 22% | 4
O=C(/C=C/Nc1ccc(Br)cn1)c1cccc(OC(F)F)c1 | x | 3% | -12 | -3.3 | 13% | -1
O=C(O)CCc1nc2cc(C(F)(F)F)ccc2n(Cc2ccccc2)c1=O | 0 | -26% | -12 | -5.5 | -3%[15.4 µM] | -1
CC(CC(F)(F)F)N1CCC(n2nccc2NC(=O)CCOc2ccccc2)CC1 (stereo not drawn) | 3 | 0% | -1 | -1.6 | 0% | 1

Continuation:
SMILES | CtBP-E1A blk | gsp antag | D2 potentiator | D2 ag | gsp agonist | Six1-Eya2 inh
O=C(Cn1nc(-c2ccccc2)ccc1=O)NCCN1CCN(Cc2ccccc2)CC1 | 5 | 3% | -22 | -1.0 | 4% | 3
COc1ccc(OC)c(NC(=O)NCc2ccc(F)cc2)c1 | -8 | -10% | -18 | -0.1 | -7% | -9
COc1ccc(-c2csc(NCc3ccco3)n2)cc1C | -13 | -5% | 15 | -1.6 | -43%[inhibitor] | -24
Cc1ccc(NC(=O)c2ncn(CCCN3CCN(c4ccccn4)CC3)n2)cc1C | -8 | 0% | -12 | -0.1 | x | 2
O=C(Cn1cnc2ccccc2c1=O)NCc1ccc2c(c1)OCO2 | 2 | 1% | u | -1.4 | -16% | 0
O=C(c1ccc(F)cc1)n1cc(C(=S)N2CCOCC2)c2ccccc21 | 5 | x | -9 | -19 | 7%[15.4 µM] | -5
O=C(Nc1cccc(S(=O)(=O)N2CCOCC2)c1)C1CCCCN1S(=O)(=O)c1ccccc1 (stereo not drawn) | u | -13% | -20 | 7.0 | 0%[15.4 µM] | u
COc1ccc(C(=O)C2CCCN(S(=O)(=O)N(C)C)C2)c(C)c1 (stereo not drawn) | 5 | -3% | -3 | 3.2 | -35% | -2
COc1cccc(-n2nnnc2SCC(=O)NCCc2ccccc2)c1 | 7 | -11% | -5 | -2.1 | -25% | 1
O=C1CCCC/C1=C/Nc1ccc(S(=O)(=O)Nc2ncccn2)cc1 | -2 | -12% | -20 | 2.4 | -26% | 9
CNc1c([N+](=O)[O-])cnn1-c1ccc(Cl)cc1 | -3 | 13% | -7 | -0.6 | 1% | 1
O=C(O)c1cccc(-c2ccc(/C=C3/SC(=Nc4ccccc4)N(Cc4cccnc4)C3=O)o2)c1 | -20 | -8% | 6 | -0.3 | -1%[15.4 µM] | 6
Cc1nc2nc[nH]c2cc1Br | 8 | 5% | -8 | -2.3 | 14% | -2
COc1ccc(N(C(=O)c2cccnc2)S(=O)(=O)c2cccc([N+](=O)[O-])c2)cc1 | 0 | -8% | 3 | -2.0 | -3% | -4
CCN(CC)c1ccc([N+](=O)[O-])cc1C(=O)N1CCOCC1 | -2 | -3% | -4 | 1.0 | -23% | 7
O=C(c1cc(S(=O)(=O)Nc2ccccc2F)c(Cl)cc1Cl)N1CCN(CCO)CC1 | -21 | -9% | -9 | -3.6 | -77%[inhibitor] | 8
CSc1ccccc1OCc1cc(C(=O)N2CCc3c(Cl)cccc3C2)no1 | 5 | -2% | -8 | 2.0 | -4% | -6
C=CCOc1ccc(Cl)cc1CNCCCN1CCOCC1 | 7 | 5% | -9 | 0.0 | 2% | -2
Cc1[nH]ncc1Nc1c(C(C)C)cccc1C(C)C | 0 | x | 0 | 1.1 | x | -10
O=C(NCc1cccnc1)c1cc([N+](=O)[O-])ccc1N1CCOCC1 | 7 | 23% | -8 | -1.1 | 15%[15.4 µM] | -1
OCCN1CCN(c2nc(-c3ccccc3)c3cc(Br)ccc3n2)CC1 | -2 | 6% | -3 | 2.5 | 5% | 2
O=C(CCS(=O)(=O)c1ccc2c(c1)NC(=O)CS2)NCCc1ccc(Cl)cc1 | 3 | 8% | -6 | -1.2 | 11% | 6
CC(C)CN(CC(C)C)c1ccc(/C=N/n2cnnc2)cc1[N+](=O)[O-] | -29 | -20% | 1 | 1.3 | -15% | -26
Cc1nc2scc(C)n2c(=O)c1S(=O)(=O)NCc1ccc(F)cc1 | x | -9% | -7 | 2.1 | -15% | -1
